Insulin prom inh – inhibitors of insulin promoter-driven GFP, primary screen, imaging, TRM-6 cells (human fetal islet line), eGFP reporter, cell count; reporter expression induced with tamoxifen; inhibition, % at 2 µM; hit rate 0.9% among 130,000; AID 1273, 2008;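 active = inhibition above the mean plus 3 SD, with well images judged a real hit on visual review, cut at about 60% in these data, passing the limit was not always enough; inconclusive = inhibition over the cutoff but images rejected on review; inactive = inhibition not above the cutoff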
HSV replic up – enhancers of HSV replication in host cells, fold increase, host cell viability. HSV replication augmentation in cells. maximum fold increase. hit rate 0.005% among 220,000;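 active = peak rise of 1.5-fold or more in the series; inconclusive = self-fluorescent or not available for retest; tested in PC3 cells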;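 note: first round at 10 µM; read as green reporter fluorescence; hits show the peak of a series up to 25 µM; 1 = signal of infected wells without compound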
RGS16-Gao – modulators of RGS16 binding to Galphao, primary screen, biochemical, human proteins, multiplexed bead flow cytometry; bead-based flow cytometry RGS16-Galphao binding, fluorescence; actives lie on both sides; binding response (% of control), % at 10 µM; hit rate 0.38% among 220,000; AID 1441, 2008;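 active = below 25% or above 175%, edge rows of some plates excepted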;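 note: Galphao activated by GDP with aluminum fluoride before binding; 100% = wells without compound and 0% = beads without RGS; some results beyond the cut were filed as inactive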
Target sequence (O15492 whole entry, looked up): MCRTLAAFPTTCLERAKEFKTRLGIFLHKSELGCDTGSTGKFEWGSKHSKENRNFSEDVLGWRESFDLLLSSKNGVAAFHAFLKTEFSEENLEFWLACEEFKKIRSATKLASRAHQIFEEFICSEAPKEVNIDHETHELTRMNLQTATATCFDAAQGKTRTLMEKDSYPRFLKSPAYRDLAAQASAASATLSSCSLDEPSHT
Target sequence (P09471 whole entry, looked up): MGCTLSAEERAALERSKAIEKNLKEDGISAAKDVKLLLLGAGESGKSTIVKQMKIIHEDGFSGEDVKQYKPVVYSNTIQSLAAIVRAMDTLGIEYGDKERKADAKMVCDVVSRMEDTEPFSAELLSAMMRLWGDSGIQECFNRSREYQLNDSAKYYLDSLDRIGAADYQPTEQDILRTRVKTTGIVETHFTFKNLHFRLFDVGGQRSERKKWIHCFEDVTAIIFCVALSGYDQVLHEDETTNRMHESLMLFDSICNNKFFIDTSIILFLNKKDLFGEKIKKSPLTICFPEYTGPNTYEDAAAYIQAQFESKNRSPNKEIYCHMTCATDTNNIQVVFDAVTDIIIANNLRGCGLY
GALR2 agonist – GALR2 receptor agonists, primary screen, cell-based; Galanin receptor type 2 (Homo sapiens), O43603; activation, %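 (tested at 5 µM)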; GALR2-expressing cells, agonist activation read-out; hit rate 0.48% among 140,000;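 active = above mean plus 3 SD of all compounds, about 5% in these data, not always enough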;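 note: 0% = vehicle buffer wells and 100% = reference agonist at full effect; tested in CHO reporter cells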
Target sequence (O43603 whole entry, looked up): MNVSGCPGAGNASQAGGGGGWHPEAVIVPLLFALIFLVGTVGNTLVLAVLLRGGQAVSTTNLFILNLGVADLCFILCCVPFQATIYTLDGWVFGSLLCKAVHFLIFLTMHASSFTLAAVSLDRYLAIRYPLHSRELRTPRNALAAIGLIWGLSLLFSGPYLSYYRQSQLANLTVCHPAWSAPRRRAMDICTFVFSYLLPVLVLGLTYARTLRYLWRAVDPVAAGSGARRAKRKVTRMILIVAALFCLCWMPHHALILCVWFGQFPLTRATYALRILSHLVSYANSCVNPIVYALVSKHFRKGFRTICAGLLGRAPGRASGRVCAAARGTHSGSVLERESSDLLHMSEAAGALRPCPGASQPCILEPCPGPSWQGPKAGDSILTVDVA
PKD1 kinase inh – inhibitors of human PKD1 kinase, biochemical, fluorescence polarization. Serine/threonine-protein kinase D1 (Homo sapiens), Q15139. PKD1 kinase fluorescence polarization assay. inhibition, %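 (about 10 µM by stock and volumes)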. hit rate 0.056% among 200,000. AID 797, 2007;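 active = inhibition of 50% or more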;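 note: controls were vehicle for no effect and a reference inhibitor for full effect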
Insulin prom inh cell count – also measured in Insulin prom inh; calls as there; normalized cell count, %; measured here: cell count, toxicity; reference of the scale not given here;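 cells exposed to compound for 48 h; stained nuclei by imaging scaled within each plate; lower means fewer cells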
HSV replic up primary fold – second read-out of HSV replic up, no call of its own (marks repeat the call); fold increase; compound at 10 µM; measured here: primary screen fold increase 10 uM; tested in PC3 cells;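 GFP signal in the first replicate; 1 = infected wells without compound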
* = called active by the depositor; i = inactive; ? = inconclusive; · = not tested or not shown; & = joins results of further samples; [ ] = another dose, or the depositor's remark.

SMILES	Insulin prom inh	Insulin prom inh cell count	HSV replic up	HSV replic up primary fold	RGS16-Gao	GALR2 agonist	PKD1 kinase inh
COc1ccc(-n2c(SCC(=O)NCc3cccs3)nc3[nH]ncc3c2=O)cc1	·	·	i	0.92	100	·	-3
COCCN(C(=S)Nc1ccccc1OC)C(C)c1cccs1 (stereo unspecified)	-37	102	i	0.89	101	-0.1	2
Cc1ccc(NC(=O)CCSc2nnc(C)s2)cc1	·	·	i	0.82	80	-1.2	0
Cc1ccc(S(=O)(=O)N2CCCCC2)cc1NC(=O)COC(=O)c1cc[n+]([O-])cc1	-4	81	i	0.98	114	-0.5	-6
COc1ccc(-c2nc(CN3CCCC(C(=O)NC4CCCC4)C3)c(C)o2)cc1 (stereo unspecified)	-15	113	i	0.85	101	-2.4	-3
O=C(NNC(=O)c1ccccc1-n1cccc1)c1ccc(F)cc1	-14	84	i	0.93	107	·	-3
COC(=O)c1ccccc1NC(=S)N(Cc1ccc2c(c1)OCO2)Cc1cc2cccc(C)c2[nH]c1=O	·	·	i	0.99	100	0.0	2
CCN(CC)CCCNC(=O)c1cc2c(-c3ccc(Cl)cc3)nn(C)c2s1	·	·	i	0.43	101	-0.1	-9
COC(=O)C(NC(=O)c1ccccc1C)(Nc1ncc(S(=O)(=O)c2ccc([N+](=O)[O-])cc2)s1)C(F)(F)F (stereo unspecified)	-40	121	i	1	267	-1.1	2
OC(COc1ccc(OCc2ccccc2)cc1)CN1CCCCC1 (stereo unspecified)	-63	85	i	0.76	104	-0.7	-5
CCOC(=O)c1c(C)[nH]c(C(=O)CN2C(=O)NC(C)(CC(C)C)C2=O)c1C (stereo unspecified)	18	13	i	0.91	113	·	-1
COc1ccc(CCNc2ccc(C(CC(N)=O)NC(=O)c3ccccc3)cc2[N+](=O)[O-])cc1 (stereo unspecified)	·	·	i	0.76	101	·	·
COc1ccc(C(=O)NCc2ccc(N3CCN(C(=O)OC(C)(C)C)CC3)cc2)cc1	·	·	i	0.95	73	-1.2	-12
Cc1noc(NS(=O)(=O)c2ccc(NC(=O)CSc3nnc(-c4ccccc4)n3C3CCCCC3)cc2)c1C	57	51	i	1	102	-1.5	-6
CCC1SC2=NC(C)=C(C(=O)OCC(C)C)C(/C=C/c3ccccc3OC)N2C1=O (stereo unspecified)	-14	81	i	0.95	104	1.4	-3
FC(F)(F)c1cc(-c2ccccc2)nc2ncnn12	-6	97	i	0.87	108	1.2	-1
CCOC(=O)CC1COCCN1C(=O)CCc1nnc(-c2ccsc2)o1 (stereo unspecified)	·	·	i	1	103	·	-8
O=C(CN1CCSCC1)N/N=C/c1ccc(F)cc1	·	·	i	1	107	-0.8	-5
CCCc1cc2c(cc1NC(=O)c1ccccc1F)OCO2	25	114	i	1	54	-1.0	-5
CCN(Cc1cn2cccnc2n1)C1CCCCC1	0	114	i	0.91	102	·	-4
C[C@@H](NC(=O)c1nc[nH]c1C(=O)N[C@@H](CCCCNC(=O)OC(C)(C)C)C(=O)OC(C)(C)C)c1ccccc1	·	·	i	0.92	104	·	-3
CN(CP(=O)(O)CN(C)S(C)(=O)=O)S(C)(=O)=O	36	107	i	0.87	104	0.1	-16
c1ccc(COc2ccc(CNCc3cccs3)cc2)cc1	·	·	i	1	97	-2.5	-8
ClCc1cc2ccccc2nc1Cl	50	237	i	0.94	100	·	-3
COC(=O)c1nnn(-c2nonc2N)c1CSCCO	10	176	i	0.83	119	-2.9	-4
CC1(OC(=O)C2CCCC2)C(=O)C=C2C=C3CCCCN3C=C2C1=O (stereo unspecified)	·	·	i	0.83	90	·	·
CCOC(=O)CSc1nnc(-c2ccc(S(=O)(=O)N3CCOCC3)cc2)n1-c1ccccc1	35	186	i	0.9	90	0.7	-12
CN(C)c1ccc(NC(=O)CN2C(=O)CC(c3ccccc3)=Nc3ccccc32)cc1	64	147	i	1	100	-0.7	10
CN(CCO)c1cnccn1	·	·	i	0.74	106	·	1
CCN1/C(=C/C=C/c2oc3ccc4ccccc4c3[n+]2CC)Oc2ccc3ccccc3c21	·	·	·	·	369*[activator]	·	-5
CN(C)C(=O)CSc1nnc(Cc2ccc3c(c2)OCO3)o1	20	154	i	1	108	·	-6
CCOC(=O)C(C)/C(C)=N/NC(=O)CCC(=O)Nc1cc(C)ccc1C (stereo unspecified)	·	·	i	0.98	102	·	-9
COCCn1c(C)cc2c(c1=O)C(c1ccco1)C(C#N)=C(N)O2 (stereo unspecified)	-3	59	i	1.8	93	-2.9	-10
Cc1cccc(C(=O)Oc2ccc(/C=N/NC(=O)c3ccccc3O)cc2)c1	20	127	i	0.91	88	-1.2	-10
COC(=O)CC(c1ccc(OC)c(OC)c1)c1ccc(OC)c(OC)c1	·	·	i	0.92	96	·	-6
CCC(C)(C)NC(=O)C(c1cccn1C)N(C(=O)Cn1nnc2ccccc21)c1ccc(OC)cc1OC (stereo unspecified)	-170	132	i	0.82	115	-1.5	-3
O=C(NCCCn1ccnc1)c1cc(-c2cccs2)on1	20	120	i	0.89	101	-4.5	-18
O=C(Nc1ccc(F)cc1)c1ccccc1	17	126	·	·	97	-2.1	1
Cc1ccc(-c2nnc(N)s2)cc1	7	86	i	0.95	105	-1.2	-13
C(=N\c1nc2ccccc2n1CCN1CCCCC1)/c1ccc2c(c1)OCO2	17	97	i	0.91	100	-0.9	2
COc1ccc(-c2cc(-c3ccc(OC)cc3)[nH]n2)cc1	·	·	i	0.91	104	-1.0	6
CCOC(=O)c1cc2c(=O)n3ccccc3nc2n(CCCOC)c1=NC(=O)c1ccncc1	·	·	i	0.92	106	·	1
O=C(NC1CCCC1)c1nc2c(nnn2Cc2cccc(Cl)c2)c(=O)[nH]1	-3	108	i	0.99	84	-1.3	2
COc1ccc2[nH]c(C)c(CCN(Cc3cccs3)C(=S)Nc3ccccc3OC)c2c1	·	·	?	·	102	-2.1	7
O=c1c2cc(NC(=S)NCc3ccccn3)ccc2nc2n1CCCCC2	·	·	i	0.92	101	·	0
O=C(CCC1CCCCC1)Nc1ccccc1O	-12	119	i	0.92	105	0.3	-11
COc1ccc(NS(=O)(=O)c2cccc(C(=O)N/N=C(\C)c3ccc(-n4ccnc4)cc3)c2)cc1	2	104	i	1	105	-1.6	-3
Cc1ccc2[nH]c3c(c2c1)CC/C(=C/c1ccccc1)C3=O	-32	120	i	0.8	129	-0.3	9
CN(Cc1ccccc1)C(=O)COC(=O)c1cc(-c2ccc(Cl)s2)nc2ccccc12	34	40	i	0.99	107	-2.1	-1
O=C1OCCN/C1=C\C(=O)c1ccc(Cl)cc1	·	·	i	0.97	98	·	·
Cc1cc(C)c(NC(=S)NCC2CCN(C(C)c3ccccc3)C2)c(C)c1 (stereo unspecified)	·	·	i	1.1	51	·	4
Cn1cc(CN2CCN(Cc3ccc4c(c3)OCO4)CC2)c(-c2ccccc2F)n1	25	121	i	1.1	93	·	-4
CCn1ccnc1CNC(=O)c1cc(COc2ccc(F)cc2F)on1	·	·	i	0.95	108	·	-1
CCOc1c(O)ccc(C2NC(=O)NC(C)=C2C(=O)OC)c1[N+](=O)[O-] (stereo unspecified)	20	136	i	1.1	99	·	-9
Cc1ccc(C(=O)COC(=O)CNC(=O)c2cccs2)cc1C	4	76	i	1	59	·	-7
COC(=O)c1sc(NC(=S)NC(=O)c2cccc(C)c2)nc1C	-4	83	i	1.1	100	-0.3	3
COc1ccc(Cl)cc1NC(=O)CN(C)C(C)C(=O)NCC1CCCCC1 (stereo unspecified)	-57	104	i	0.8	99	-0.5	1
Cc1ccc(-n2c(SCC(=O)NNC(=S)Nc3ccccc3)nc3ccccc3c2=O)cc1	-6	53	i	1	114	-0.9	11
C/C(=N\NC(=O)C(N)=O)c1ccc(O)cc1O	·	·	i	0.82	87	·	-1
Cc1ccc(Cl)cc1N1CCN(C(=O)CSc2ccsc2[N+](=O)[O-])CC1	-32	144	i	0.84	96	-1.2	-7
Continued:
SMILES	Insulin prom inh	Insulin prom inh cell count	HSV replic up	HSV replic up primary fold	RGS16-Gao	GALR2 agonist	PKD1 kinase inh
Cc1nc(CN2CCCCC2)cc(=O)[nH]1	·	·	i	1.1	93	·	-3
CN(C)CCN1C(=O)c2oc3ccc(Cl)cc3c(=O)c2C1c1cccc(Br)c1 (stereo unspecified)	54	95	i	1	80	-1.1	-3
COc1cc(C)ccc1OCCOc1c(C)cccc1Cl	·	·	·	·	101	-3.1	-4
COc1ccccc1CNC(=O)C(=O)NCC1OCCN1C(=O)c1cccs1 (stereo unspecified)	·	·	i	1.3	103	-1.4	2
CCN(CC)C(=O)CSc1nc(N)c(-c2ccccc2)c(=O)[nH]1	·	·	i	0.74	110	·	-4
O=[N+]([O-])c1ccccc1Oc1ccc(Cl)c2cccnc12	-13	60	i	1.1	47	·	3
COc1cccc(OCC(O)CN2CCC(C)CC2)c1 (stereo unspecified)	-23	107	i	0.96	109	-2.6	2
COc1ccc(N2CCN(C(CNC(=O)C(=O)NCCC3=CCCCC3)c3ccco3)CC2)cc1 (stereo unspecified)	-7	125	i	0.81	103	-0.9	-5
COc1ccc(CC(=O)NC(C)C2COc3ccccc3O2)cc1OC (stereo unspecified)	·	·	i	0.99	106	·	-1
Cc1cc(OCc2nc3ccccc3s2)ccc1N	·	·	i	0.99	86	·	·
COC(=O)c1[nH]c2ccc(C)cc2c1NC(=O)CCN1CCN(Cc2ccc3c(c2)OCO3)CC1	·	·	i	1.1	104	-2.1	-13
O=S(=O)(Nc1ncccn1)c1ccc(NC(=S)NCc2ccco2)cc1	19	115	i	0.93	102	·	-5

Five entries picked at random from the list so far:
SMILES	Insulin prom inh	Insulin prom inh cell count	HSV replic up	HSV replic up primary fold	RGS16-Gao	GALR2 agonist	PKD1 kinase inh
O=[N+]([O-])c1ccccc1Oc1ccc(Cl)c2cccnc12	-13	60	i	1.1	47	·	3
COc1ccc(CC(=O)NC(C)C2COc3ccccc3O2)cc1OC (stereo unspecified)	·	·	i	0.99	106	·	-1
O=S(=O)(Nc1ncccn1)c1ccc(NC(=S)NCc2ccco2)cc1	19	115	i	0.93	102	·	-5
COc1cccc(OCC(O)CN2CCC(C)CC2)c1 (stereo unspecified)	-23	107	i	0.96	109	-2.6	2
CN(C)CCN1C(=O)c2oc3ccc(Cl)cc3c(=O)c2C1c1cccc(Br)c1 (stereo unspecified)	54	95	i	1	80	-1.1	-3

2 successive entries already listed, quoted:
SMILES	Insulin prom inh	Insulin prom inh cell count	HSV replic up	HSV replic up primary fold	RGS16-Gao	GALR2 agonist	PKD1 kinase inh
COC(=O)c1[nH]c2ccc(C)cc2c1NC(=O)CCN1CCN(Cc2ccc3c(c2)OCO3)CC1	·	·	i	1.1	104	-2.1	-13
O=S(=O)(Nc1ncccn1)c1ccc(NC(=S)NCc2ccco2)cc1	19	115	i	0.93	102	·	-5

(more compounds)
SMILES	Insulin prom inh	Insulin prom inh cell count	HSV replic up	HSV replic up primary fold	RGS16-Gao	GALR2 agonist	PKD1 kinase inh
Cc1ccc2nc(SCC(=O)Nc3cccc(S(=O)(=O)NC4=NCCCCC4)c3)[nH]c2c1	·	·	i	1.2	100	·	·
COc1ccc(-c2cc(C(=O)O)[nH]n2)cc1OC	39	74	i	0.93	101	-2.0	-4
Cn1nc(-c2ccccc2F)c2cc(C(=O)Nc3ccc4c(c3)OCCO4)sc21	69	126	i	0.86	96	-1.0	-6
CCN1CCN(c2cc(C)c3cc(NC(=O)c4cccc(OC)c4)ccc3n2)CC1	·	·	i	0.78	99	·	·
O=[N+]([O-])c1ccc(OCCCCN2CCCCC2)cc1	·	·	i	1	148	-1.0	-8
COc1ccc(S(=O)(=O)N2CCN(CC(=O)Nc3cc(OC)cc(OC)c3)CC2)cc1	3	55	·	·	104	-2.2	10
COc1ccc(C(=O)C2CCCN(C(=O)C3=CCCC3)C2)cc1OC (stereo unspecified)	-31	72	i	0.93	98	·	-10
CCc1oc2ccccc2c1C(=O)c1cc(Br)c(O)c(Br)c1	-68	132	i	0.85&0.97	92&99	-1.9	10
COc1ccc(OC)c(NC(=O)CSc2nnc(Cc3cccn3C)n2-c2ccc(F)cc2)c1	·	·	i	0.85	123	-0.8	7
Cc1cccc(Nc2nnc(SCC(=O)Nc3cccc(S(=O)(=O)N4CCCCC4)c3)s2)c1	0	90	i	0.96	112	-2.1	1
OC1=C(O)c2nc3cc(C(F)(F)F)ccc3nc21	·	·	i	1	105	·	·
O=C(c1cccc(C(F)(F)F)c1)C1CCCN(Cc2cccn2-c2ccccn2)C1 (stereo unspecified)	-9	97	i	0.78	111	·	-3
